From PubChem BioAssay
LANA-H2A inh = blocks KSHV LANA binding to histone H2A/H2B; cell-free LANA-H2A/H2B peptide, fluorescence polarization; inhibition, % (test concentration not listed); 320,000 compounds, 0.6% hits; AID 2629; in the data active means inhibition mostly above about 10%, no sharp cut-off; inactive means mostly below about 6.7%;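 further: stock transfer was 7.5 nL into about 10 µL; 0% = median of vehicle wells and 100% = median of positive control wells; one replicate is shown; the record names a cut of 25% in any replicate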
Vif A3G = HIV-1 Vif–A3G interaction blockers – biochemical, TR-FRET, GST-Vif 1-94, biotin-A3G peptide, dose response retest, primary screen (AID 1117319); TR-FRET GST-Vif / biotin-A3G peptide binding; higher % means a stronger effect; test concentration not given here; strong numbers were not always called active; inhibition, %, or IC50 in µM where a hit was titrated; 260,000 compounds, 0.57% hits;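 active means above the screen mean plus three standard deviations and confirmed in dose response; inconclusive means results disagree or hit not tested in dose response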;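 further: Vif residues 1-94 fused to GST binding biotinylated APOBEC3G peptide 110-148; 0% = full assay without inhibitor and 100% = GST in place of GST-Vif; retest series ran down from 100 µM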
RanGTP-Imp inh = disruptors of Ran-importin-beta complex formation – biochemical, FRET, CFP-Ran, YFP-importin-beta, homogeneous, primary screen. inhibition, % (test concentration not listed). 300,000 compounds, 1.1% hits. AID 2216. cell-free CFP-Ran/YFP-importin-beta FRET ratio;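 active means most replicates above 15%; inconclusive means exactly half above 15%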;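 further: 0% = DMSO wells and 100% = Ran loaded with GDP instead of GTP; wells of about 40 µL received 100 nL stock; the first replicate is given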
A1 inh = inhibitors of the anti-apoptotic protein A1, read as caspase activation; MEF A1-2A-BIM cells, Caspase-Glo 3/7 luminescence, 3 h; percent of clofoctol response, vehicle zero; caspase activation, % (test concentration not listed); 330,000 compounds, 0.066% hits;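 active means over half of replicate activation scores above 10%, or exactly half above 10 with the replicate mean above 10; inconclusive means replicate mean below 10 yet half the replicates above 10; inactive means over half of replicates below 10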;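 further: wells of about 30 µL received 50 nL stock; many hits fall short of the cut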
Beta cell apopt = beta cell apoptosis inhibition; INS-1E cytokine-induced death, ATP luminescence, 48 h; percent of positive-control rescue, neutral wells zero; protection from apoptosis, % (no concentration beside the values); 300,000 compounds, 0.8% hits; AID 435005;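 active means all replicates at 75% or more, or half of them and the mean; inconclusive means half reach 75% but not the mean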;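 further: 0% = cytokine-treated negative control wells and 100% = positive control rescue; higher means more ATP so stronger rescue from cytokine killing; wells of about 40 µL received 100 nL stock; the first replicate is given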
T cruzi repl = blocks replication of Trypanosoma cruzi. T. cruzi beta-gal in NIH3T3, luminescence, 90 h. inhibition, % (concentration not given with the values). 300,000 compounds, 1.4% hits. AID 1885;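 active means mean inhibition across valid replicates above about 55%, limit read from the data; inconclusive means mean below that limit but half or more replicates reach it; inactive means mean below it, under half of replicates reach it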;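 further: signal also drops with host cell toxicity which is not excluded here; 0% = plate median of DMSO wells and 100% = zero luminescence signal; higher percent means less beta-gal luminescence so fewer parasites; stock transfer was 50 nL into about 50 µL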
MLL AF4-AF9 inh = MLL-AF4/AF9 protein interaction inhibition; P42568; 350,000 compounds, 0.47% hits; inhibition, % at 10 µM; AlphaScreen, biotin-AF4 peptide binding to FLAG-AF9;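 active means every replicate reaching a set inhibition limit, whatever the replicate mean, cut at about 25% in these data; inconclusive means mean inhibition reaches that limit but some replicates miss it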;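 further: 0% = plate neutral control median and 100% = total signal loss; the record names both 10 and 1 µM as test concentration; the first replicate is given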
Target sequence (P42568 whole entry, looked up): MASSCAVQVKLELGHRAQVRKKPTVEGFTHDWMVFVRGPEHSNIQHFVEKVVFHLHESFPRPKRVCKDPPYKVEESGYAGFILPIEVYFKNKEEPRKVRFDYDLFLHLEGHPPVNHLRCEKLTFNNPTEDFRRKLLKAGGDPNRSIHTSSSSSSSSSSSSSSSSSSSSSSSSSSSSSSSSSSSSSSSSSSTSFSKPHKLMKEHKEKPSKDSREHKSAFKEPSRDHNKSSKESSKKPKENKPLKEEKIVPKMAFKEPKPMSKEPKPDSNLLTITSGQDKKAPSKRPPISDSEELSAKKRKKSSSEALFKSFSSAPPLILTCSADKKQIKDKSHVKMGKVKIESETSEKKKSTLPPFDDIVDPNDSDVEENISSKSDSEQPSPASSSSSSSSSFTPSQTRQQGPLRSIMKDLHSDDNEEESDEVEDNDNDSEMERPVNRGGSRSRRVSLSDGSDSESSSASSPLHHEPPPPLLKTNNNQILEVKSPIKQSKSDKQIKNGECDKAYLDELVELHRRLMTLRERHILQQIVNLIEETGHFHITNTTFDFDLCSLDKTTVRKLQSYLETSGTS
Calb FLC = affects C. albicans growth with fluconazole; 300,000 compounds, 0.57% hits; C. albicans CaCi-2 (fluconazole-resistant clinical isolate) + fluconazole, Alamar Blue growth, 48 h; AID 1979; growth inhibition, % (concentration not given with the values);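 active means most replicates above 75%; inconclusive means exactly half above 75%; inactive means most below 75%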;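 further: all wells also contain fluconazole at 8 µg/ml as a sub-toxic cotreatment; 0% = median of DMSO wells and 100% = median of geldanamycin control wells; wells of about 8 µL received 7.5 nL stock; the first replicate is given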
Numbers without * were called inactive; ? = inconclusive; / = not tested or not shown; & = joins results of further samples.

SMILES	LANA-H2A inh	Vif A3G	RanGTP-Imp inh	A1 inh	Beta cell apopt	T cruzi repl	MLL AF4-AF9 inh	Calb FLC
COc1cc(CCC(=O)OCC(=O)Nc2c(C)cccc2C(C)C)cc(OC)c1OC	-1.9	/	4.2	1.0	-14	-15	-1.1	-3
NC(=O)c1sc2nc(N3CCCCC3)c3c(c2c1N)CCCC3	8.2	15%	3.2	0.3	-5	3	/	25
CCN(CCn1cccn1)C(=O)C1CCC(=O)N(CC2CCCCC2)C1 (stereo not given)	-12	/	-1.1	-0.3	-1	-12	-5.8	-3
O=C(N/N=C\c1ccc(Br)o1)C1COc2ccccc2O1 (stereo not given)	-0.4	19%	-4.3	0.2	-4	-21	5.2	-12
O=C(C1CCN(c2nnnn2-c2ccccc2)CC1)N1CCN(c2ccccc2)CC1	0.2	5%	/	-1.0	-3	1	/	7
Cc1ccc(-c2csc3ncnc(NCCC(=O)O)c23)cc1C	4.1	/	0.8	0.1	-1	-1	-16	12
O=C(COC(=O)Cc1c(F)cccc1Cl)NC(=O)Nc1ccccc1F	-1.2	/	/	1.2	-3	/	-0.7	/
Cc1ccc(C)c(N2CCN(CC(=O)Nc3ccc4[nH]c(=O)[nH]c4c3)CC2)c1	-3.0	19%	-1.8	0.8	-3	-3	-0.7	-6
Cc1cc(C)cc(NC(=O)C2CCN(c3nccs3)CC2)c1	-2.8	8%	5.0	-1.0	3	-2	/	-8
CN(C)S(=O)(=O)c1cc(S(=O)(=O)N(C)C)c(Cl)cc1N	-1.4	?	?	0.6	6	0	-4.6	0
CC(=O)Nc1sc(C)c(C)c1C(=O)Nc1ccc(C)cc1	-1.2	-7%	4.0	1.3	0	9	/	-5
CCOc1cc(CNc2ccccc2SC)ccc1O	0.2	9%	1.4	-0.3	-1	-5	/	-9
COc1ccc(CNC(=O)c2cc3cccc(OC)c3oc2=N)cc1	0.0	/	?	-0.5	-5	-6	0.1	3
CSCC[C@H](NC(=O)N1CCn2c1nc1ccccc12)C(=O)N1CCCCC1	-3.1	/	2.4	-0.9	-9	7	4.4	-1
CC(=O)Nc1cccc(NC(=O)CSc2nnnn2C(C)C)c1	8.3	11%	6.7	-1.8	-4	-4	/	1
CN(C)c1nc(N)nc(-c2nc3ccccc3s2)n1	-5.8	11%	-2.5	-4.9	-3	-14	4.5	20
Cc1cc(CNC(=O)CC2C(=O)NCCN2CC(c2ccccc2)c2ccccc2)on1 (stereo not given)	-1.5	/	-1.5	0.4	1	-12	0.7	-8
Cn1cc(S(=O)(=O)N2CCCC2)cc1C(=O)NCc1ccc(F)cc1	1.4	/	-1.5	0.7	-1	-16	-8.1	-3
O=C(O)[C@H]1CCCN1C(=O)c1ccccc1N1C(=O)[C@@H]2Cc3c([nH]c4ccccc34)C(c3cccc(Cl)c3)N2C1=O (stereo not given in full)	4.2	/	3.1	-0.2	0	-12	2.1	2
CCOC(=O)N1CCN(C(=S)Nc2ccc(C)cc2)CC1	-0.6	-5%	-2.8	-0.2	-6	-33	/	3
CC(C)OC(=O)c1ccc(N2CCN(c3ccc(F)cc3)CC2)nc1	-6.2	-2%	-2.0	0.1	4	38	-3.1	-8
COCCCNCCOCCOc1ccccc1-c1ccccc1	-0.9	-14%	1.7	-0.2	-4	3	/	-17
Cn1c(=O)[nH]c(=O)c2c1nc(CN1CCN(c3ccccc3F)CC1)n2CC(N)=O	-0.8	-3%	-1.6	-0.1	0	-1	-2.9	-1
O=C(CCN1CCN(c2ccccc2)CC1)Nc1ccccc1	2.2	/	-2.2	0.3	-11	-7	2.4	-5
CCCc1nc2nc(C)c(NS(=O)(=O)c3ccc([N+](=O)[O-])cc3)c(=O)n2[nH]1	2.5	/	5.3	0.3	1	-9	-2.9	0
CN(C)S(=O)(=O)c1cccc(C(=O)Nc2cc3c(cc2C(=O)O)OCCCO3)c1	3.4	9%	1.0	-3.9	-6	-3	0.2	0
COc1ccc(C2(C)NC(=O)N(CC(=O)Nc3ccc(C)cc3Br)C2=O)cc1OC (stereo not given)	6.4	/	8.2	-0.5	-3	4	-4.3	-6
CCNC(=S)SCCOc1ccccc1C	-2.3	/	-3.4	-0.3	/	-17	1.2	-5
Cc1cc(NC(=O)C(=O)NCCN2CCN(C(=O)c3cccs3)CC2)ccc1Br	-2.9	/	-3.5	0.3	6	6	/	-30
CC1(C)O[C@@H]2[C@H](O1)[C@@H](COS(=O)(=O)O)O[C@H]2n1c(=S)[nH]c2c(=O)[nH]c(N)nc21	2.8	/	/	0.1	-4	/	13	/
COc1ccc(-c2nc(N)ncc2-c2csc(C)n2)c(O)c1	-7.7	2%	2.4	0.2	-8	-8	/	1
COc1ccccc1CN(C)C(=O)c1cccc(S(=O)(=O)N2CCc3ccccc3C2)c1	2.3	/	/	0.0	-7	/	1.0	/
O=S1(=O)CC(O)C(NCc2ccco2)C1 (stereo not given)	1.1	11%	-2.6	1.3	/	22	/	-4
COc1cc(C(=O)NNC2=NC(C)(C)Cc3cc(C)c(C)cc32)cc(OC)c1OC	-0.2	/	3.9	0.4	5	6	-3.0	27
O=C1c2ccccc2C(Nc2ccc(S(=O)(=O)N3CCCCCC3)cc2)N1c1ccccn1 (stereo not given)	2.1	-16%	6.4	-1.0	4	25	3.9	-3
CO/N=C/c1c(C(=O)OC)nn(-c2ccccc2)c1Cl	2.9	-1%	0.4	0.6	-7	/	-0.3	11
CN(/N=C/c1ccc2c(c1)OCO2)c1ccccc1	-2.0	-4%	1.4	-3.6	0	-3	/	4
COc1cc(/C=N/Nc2ccc(Cl)c(C(=O)O)c2)ccc1OC(=O)c1cccs1	-5.1	7%	/	-0.4	1	/	1.0	/
CCOC(=O)C1CCCCN1C(=O)CCn1nnnc1CN1CCOCC1 (stereo not given)	0.1	/	3.6	0.9	-1	-2	-1.0	-8
CCOc1cccc(C(=O)NC(=S)Nc2cccc(C)c2)c1	-2.1	4%	-2.8	1.0	2	-6	1.4	3
CCCCCCN(C(=O)CCCCCN1C(=O)NC(c2ccc(C(C)(C)C)cc2)C(C(=O)OCc2ccccc2)=C1C)C(C(=O)NCCCC)c1ccc(OCC(=O)OC)c(C(=O)OC)c1 (stereo not given)	/	72%	1.8	/	/	22	/	3
O=C(NCc1csc(-c2cccs2)n1)Nc1ccc(F)cc1F	-5.5	/	-0.7	-0.3	-3	/	-6.5	-22
Cc1cc(Nc2c(C)cccc2C)n2nc(C)nc2n1	-5.0	8%	-3.2	0.6	-2	-4	-0.5	-10
CC1=NN(C(=O)c2nn(C)cc2Br)C(O)(C(F)(F)F)C1 (stereo not given)	0.2	19%	7.0	0.0	-2	-14	-17	-3
C=CCOc1c(Br)cc(/C=C(\C#N)C(N)=O)cc1OC	-1.1	15%	-1.4	0.6	-15	-20	?	4
Cc1c(C(=O)N(Cc2cccc(Br)c2)C2CCS(=O)(=O)C2)oc2ccccc12 (stereo not given)	-2.2	1%	-1.4	1.4	12	22	0.6	29
CCN1C(=O)/C(=C2\C=Cc3cc(C)ccc3N2CC)OC1=S	-1.3	-2%	6.3	0.3	13	11	/	13
CCc1ccc(N2CC(C(=O)Nc3nnc(CC)s3)CC2=O)cc1 (stereo not given)	-2.0	2%	-1.0	1.0	-2	-15	/	-4
O=[N+]([O-])c1ccccc1OCC(O)CN1CCN(CC(O)COc2ccccc2[N+](=O)[O-])CC1 (stereo not given)	0.9	-1%	1.5	0.6	/	9	5.4	4
CCCc1oc2c(c(=O)c1CC)C(=O)CC(C)(C)C2	-5.8	-4%	3.6	-0.6	-3	4	/	-35
CN1CCN(C(=O)c2ccc(Cl)c(S(=O)(=O)N3CCCCCC3)c2)CC1	-0.2	3%	9.3	-0.7	2	13	-0.1	-12
COC(=O)c1cnc(SC)nc1C	5.7	0%	0.8	0.3	-23	-11	/	3
Cc1c(NC(=O)c2cccc(NC(=O)Cc3c(F)cccc3Cl)c2)c(=O)n(-c2ccccc2)n1C	-0.7	-7%	/	-0.5	-1	/	-1.0	/
FC(F)(F)C1CC(c2cccs2)Nc2ncnn21 (stereo not given)	3.9	1%	2.8	0.6	-4	-18	/	7
O=C1NC(=Nc2ccc(Cl)cc2)SC1Cc1cc(Cl)ccc1Cl (stereo not given)	-0.5	/	0.8	0.4	/	12	/	9
O=C(CCN1C(=O)/C(=C/c2ccccc2Cl)SC1=S)Nc1ccccc1C(=O)O	-5.7	-3%	1.9	-3.0	0	21	-12	-6
CCOc1cc(C2C3=C(CC(C)(C)CC3=O)N(CCOC)C3=C2C(=O)CC(C)(C)C3)ccc1OC	4.7	/	1.5	0.2	-4	-5	-4.2	3
CCC(C)NC(=O)CN(C)S(=O)(=O)c1ccc2c(c1)c(=O)n(C)c(=O)n2C (stereo not given)	3.2	1%	9.4	0.0	-10	-7	2.2	-1
CCOC(=O)C(=O)Nc1cc([N+](=O)[O-])ccc1C	-4.7	1%	-0.8	-0.3	-2	2	/	4
COc1cccc(CC(NC(C)=O)C(=O)NC2CCN(S(=O)(=O)c3ccc(F)cc3)CC2)c1OC (stereo not given)	1.4	-18%	-0.4	0.3	1	-11	-2.3	-2
Next records:
SMILES	LANA-H2A inh	Vif A3G	RanGTP-Imp inh	A1 inh	Beta cell apopt	T cruzi repl	MLL AF4-AF9 inh	Calb FLC
COc1cc(NC(=O)CCCNC(=O)Cn2cnc3sc(C)c(C)c3c2=O)cc(OC)c1OC	-2.2	-7%	-1.4	1.3	/	-4	-2.8	2
O=C(COc1ccc2c(-c3ccccc3)cc(=O)oc2c1)NCCN1CCOCC1	4.0	/	-3.4	-0.1	-1	2	1.0	-3
O=C(COc1c(CO)cc(Br)cc1CO)NC1CCCc2ccccc21 (stereo not given)	0.4	16%	3.2	0.4	-3	5	-1.8	1
Cc1c(NS(=O)(=O)c2ccc(NC(=O)CCC(=O)O)cc2)c(=O)n(-c2ccccc2)n1C	-2.0	-6%	2.4	0.5	-11	-2	-2.8	-2
Cc1cccc2c1cnn2C(=O)Nc1ccccc1Cl	3.1	-2%	5.2	-0.5	-2	3	-1.8	6
CCCCC(O)(CCCC)C(=O)NN(C(=O)c1cccnc1Cl)c1ccccc1	-2.8	14%	7.9	1.0	-5	-8	0.0	-1
Cc1ccc(C)c2c1[nH]c1ccccc12	0.1	-8%	-1.1	0.9	-2	-5	/	8
COc1cccc(C2c3c(C)nn(-c4ccc([N+](=O)[O-])cc4)c3N=C3C(=O)Nc4ccccc4N32)c1 (stereo not given)	-3.0	-4%	4.0	0.3	25	63*	-1.7	45
Cc1cccc(N2CCN(C(=O)CSc3nc4ccccc4nc3N3CC(C)OC(C)C3)CC2)c1C (stereo not given)	2.3	/	?	1.0	2	25	-16	6
CCN(C[C@H]1N[C@@](CC)(C(=O)OC)[C@H]2C(=O)N(C)C(=O)[C@@H]12)S(=O)(=O)c1ccc(OC)cc1	2.6	-2%	/	-1.5	-10	/	-2.6	/
CCC(C(=O)NC1CCCC1)N(Cc1ccco1)C(=O)Cn1nnc(-c2ccc(C)cc2)n1 (stereo not given)	-3.8	12%&-9%	4.0	-0.4	3	9	/	-4
C(=N\Nc1ccc2ccccc2n1)/c1ccc2c(c1)OCCO2	0.0	/	-2.1	-7.1	1	23	11	-8
